FGF22 binding: binders of human FGF22 protein, primary screen, FGF22 synaptogenesis inhibitor project, biophysical, thermal shift, single point. Fibroblast growth factor 22 (Homo sapiens), Q9HCT0. recombinant FGF22 thermal shift, SYPRO orange fluorescence; percent of sucrose octasulfate shift, DMSO zero. calls only at 9.99 µM. hit rate 1.5% among 340,000. AID 651658, 2012;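 active = melting point raised past a set limit in the mean and every replicate; three in four hits are not shown here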
Target sequence (Q9HCT0 whole entry, looked up): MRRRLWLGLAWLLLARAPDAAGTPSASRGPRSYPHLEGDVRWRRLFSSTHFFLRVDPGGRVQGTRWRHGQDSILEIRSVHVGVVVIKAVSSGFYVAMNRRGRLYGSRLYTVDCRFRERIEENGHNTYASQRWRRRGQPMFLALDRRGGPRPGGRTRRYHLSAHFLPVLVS
rRNA inh HTS: reduced GFP signal of wild-type E. coli, primary screen, bacterial rRNA inhibitor project, GFP/RFP fluorescence, OD600, single point. hit rate 1.6% among 350,000. GFP signal change (wild-type ribosome), % (test concentration not listed). E. coli WT GFP vs humanized-ribosome RFP mutants, 24 h; stronger effect = lower value; DMSO median 0, no signal -100. AID 720706, 2013;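 active = significant combined selectivity score with lowered wild-type GFP, culture density cut under 30%, mutant RFP and density less affected; inactive = any of these conditions unmet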; also: one replicate is shown; some compounds called inactive have numbers as strong as hits
rRNA inh HTS OD600: further read-out of rRNA inh HTS, marked with its call; OD600 change, %; measured here: OD600 growth;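 optical density of the mix in the first replicate; 0 = DMSO median and -100 = no signal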
rRNA inh HTS RFP: also measured in rRNA inh HTS; calls as there; RFP signal change, %; measured here: RFP humanized mutant strains;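 first replicate; 0 = DMSO median and -100 = no signal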
* hit, by the source's call; i = inactive; + = active, no number. An excerpt (hit frequency here may not be typical).

#	SMILES	FGF22 binding	rRNA inh HTS
1	COc1ccc2c3c([nH]c2c1)[C@H](CO)N(C(=O)NC(C)C)CC31CCN(C(=O)c2ccccn2)CC1	i	-1
2	O=C(C[C@H]1CC[C@H](NC(=O)Nc2ccc3c(c2)OCO3)[C@H](CO)O1)NCc1ccc(F)cc1	i	2
3	COc1ccc(C(=O)N2C[C@H]3[C@@H](c4ccccc42)[C@H](CO)N3Cc2ccccc2Cl)cc1	i	-17
4	C[C@@H]1CN([C@H](C)CO)S(=O)(=O)c2ccc(-c3ccccc3F)cc2O[C@H]1CN(C)C	i	1
5	Cc1noc(C)c1NC(=O)N[C@H]1CC[C@H](CC(=O)N2CCN(C)CC2)O[C@H]1CO	i	1
6	O=C(C[C@H]1C=C[C@@H](NC(=O)c2cccnc2)[C@@H](CO)O1)NCc1ccc(Cl)c(Cl)c1	i	1
7	COC(=O)[C@]12C[C@H](CC(=O)N3CCC(c4ccccc4)CC3)C(=O)N(Cc3ccc4c(c3)OCO4)C1=C[C@H](C(C)(C)C)O[C@@H]2C	i	1
8	C[C@H](CO)N1C[C@H](C)[C@H](CN(C)S(C)(=O)=O)Oc2c(NC(=O)c3ccncc3)cccc2C1=O	i	5

#	rRNA inh HTS OD600	rRNA inh HTS RFP
1	2	0.3
2	5	-1.4
3	-40	-1.6
4	-5	-0.4
5	1	-0.8
6	3	2.5
7	8	-1.7
8	13	-3.9

The list goes on.
#	SMILES	FGF22 binding	rRNA inh HTS
9	CCCC(=O)Nc1ccc2c(c1)OC[C@@H](C)N(Cc1ccccn1)C[C@H](C)[C@@H](OC)CN(C)C2=O	i	-3
10	CC(=O)N1[C@@H]2CN(S(=O)(=O)c3ccccc3F)c3ccccc3[C@@H]2[C@@H]1CO	i	0
11	COc1ccc2c3c(n(C)c2c1)[C@H](CO)N(C(=O)CC1CC1)CC31CCN(C(=O)C2CCCC2)CC1	i	-6
12	CC(C)NC(=O)N(C)C[C@H]1Oc2ccc(NC(=O)Nc3ccc(F)cc3)cc2CC(=O)N([C@@H](C)CO)C[C@H]1C	i	-1
13	C[C@@H](NC(=O)C[C@H]1C[C@H]2c3cc(NS(=O)(=O)c4ccc(F)cc4)ccc3O[C@H]2[C@@H](CO)O1)c1ccccc1	i	2
14	COc1ccc(S(=O)(=O)Nc2ccc3c(c2)C(=O)N([C@H](C)CO)C[C@H](C)[C@H](CN(C)C(=O)Nc2c(C)noc2C)O3)cc1	i	-1
15	O=C(C[C@H]1C[C@@H]2c3cc(NC(=O)c4ccc5c(c4)OCO5)ccc3O[C@@H]2[C@@H](CO)O1)NCC(F)(F)F	i	-2
16	COCC(=O)Nc1ccc2c(c1)C(=O)N(C)[C@@H]1CC[C@@H](CC(=O)NCc3ccccc3F)O[C@@H]1CO2	i	4

#	rRNA inh HTS OD600	rRNA inh HTS RFP
9	-1	-1.7
10	3	-0.8
11	-13	1.0
12	-1	-0.6
13	-13	1.0
14	-3	-2.6
15	-1	2.7
16	4	1.5

Additional results:
#	SMILES	FGF22 binding	rRNA inh HTS
17	Cc1ccc(-c2ccc3c(c2)O[C@H](CN(C)C(=O)Nc2ccc(C(F)(F)F)cc2)[C@H](C)CN([C@@H](C)CO)S3(=O)=O)cc1	i	0
18	C[C@H](CO)N1C[C@H](C)[C@@H](CN(C)Cc2cccnc2)Oc2cc(/C=C/c3ccccc3)ccc2S1(=O)=O	i	-3
19	O=C(NCC[C@@H]1CC[C@@H](NS(=O)(=O)c2ccccc2)[C@H](CO)O1)c1ccc2c(c1)OCO2	i	-1
20	Cc1noc(C)c1NC(=O)Nc1cccc2c1O[C@@H](CN(C)C(=O)Nc1c(C)noc1C)[C@@H](C)CN([C@@H](C)CO)C2=O	i	0
21	COc1cccc(CN2[C@H](CO)[C@@H](c3ccccc3)C23CN(C(=O)C2CCCCC2)C3)c1	i	-10
22	CO[C@@H]1CN(C)C(=O)c2ccc(NC(=O)c3ccccc3F)cc2OC[C@@H](C)N(CC2CC2)C[C@H]1C	i	-2
23	CN(C)C(=O)[C@H]1[C@H](CO)[C@H]2Cn3c(cccc3=O)[C@@H]1N2CC1CCCCC1	i	3
24	C[C@@H]1CN([C@@H](C)CO)C(=O)c2cccc(NC(=O)c3ccc(-c4nccs4)cc3)c2O[C@H]1CN(C)CC1CCCCC1	i	0

#	rRNA inh HTS OD600	rRNA inh HTS RFP
17	3	-0.9
18	-8	-0.8
19	-3	-1.2
20	3	-1.9
21	-16	3.4
22	0	-1.8
23	5	-2.1
24	0	1.1

Additional entries.
#	SMILES	FGF22 binding	rRNA inh HTS
25	CCCC(=O)Nc1ccc2c(c1)C(=O)N(C)C[C@H](OC)[C@@H](C)CN(CCC)[C@H](C)CO2	i	2
26	CN1C(=O)c2cc(NC(=O)NCc3ccccc3)ccc2OC[C@H]2O[C@@H](CC(=O)NCC3CCCCC3)CC[C@@H]21	i	-6
27	C[C@@H]1CCCCO[C@@H](CN(C)Cc2ccc3c(c2)OCO3)[C@H](C)CN([C@@H](C)CO)C(=O)c2cc(NC(=O)Nc3ccc(F)cc3)ccc2O1	i	13
28	C[C@H]1CN([C@@H](C)CO)C(=O)c2cc(NS(=O)(=O)c3ccc(Cl)cc3)ccc2O[C@H]1CN(C)Cc1ccc(Cl)c(Cl)c1	i	4
29	C[C@@H]1CN([C@H](C)CO)C(=O)c2cc(-c3cccnc3)cnc2O[C@H]1CN(C)C(=O)Cc1cccnc1	i	0
30	O=C(C[C@H]1C=C[C@@H](NC(=O)Nc2cccc(F)c2)[C@H](CO)O1)NCC1CCCCC1	i	-9
31	CC(C)NC(=O)N1[C@H](CO)[C@H](c2ccccc2)C12CN(C(=O)CN(C)C)C2	i	2
32	C/C=C/c1cnc2c(c1)C(=O)N([C@H](C)CO)C[C@@H](C)[C@H](CN(C)C(=O)c1cccc(F)c1)O2	i	3

#	rRNA inh HTS OD600	rRNA inh HTS RFP
25	-1	-1.8
26	-23	0.8
27	-9	15
28	-7	-0.4
29	5	1.0
30	-14	0.3
31	11	-0.6
32	-2	-2.1

Another view of part of the listing above:
#31 CC(C)NC(=O)N1[C@H](CO)[C@H](c2ccccc2)C12CN(C(=O)CN(C)C)C2
#30 O=C(C[C@H]1C=C[C@@H](NC(=O)Nc2cccc(F)c2)[C@H](CO)O1)NCC1CCCCC1
#25 CCCC(=O)Nc1ccc2c(c1)C(=O)N(C)C[C@H](OC)[C@@H](C)CN(CCC)[C@H](C)CO2
#26 CN1C(=O)c2cc(NC(=O)NCc3ccccc3)ccc2OC[C@H]2O[C@@H](CC(=O)NCC3CCCCC3)CC[C@@H]21
#27 C[C@@H]1CCCCO[C@@H](CN(C)Cc2ccc3c(c2)OCO3)[C@H](C)CN([C@@H](C)CO)C(=O)c2cc(NC(=O)Nc3ccc(F)cc3)ccc2O1
#28 C[C@H]1CN([C@@H](C)CO)C(=O)c2cc(NS(=O)(=O)c3ccc(Cl)cc3)ccc2O[C@H]1CN(C)Cc1ccc(Cl)c(Cl)c1
Compound | 31 | 30 | 25 | 26 | 27 | 28
FGF22 binding | i | i | i | i | i | i
rRNA inh HTS | 2 | -9 | 2 | -6 | 13 | 4
rRNA inh HTS OD600 | 11 | -14 | -1 | -23 | -9 | -7
rRNA inh HTS RFP | -0.6 | 0.3 | -1.8 | 0.8 | 15 | -0.4

More results.
#	SMILES	FGF22 binding	rRNA inh HTS
33	CN(C)C(=O)c1cccc(-c2ccc([C@@H]3[C@H](C#N)N(C(=O)C4CCC4)[C@H]3CO)cc2)c1	i	-1
34	C[C@H](CO)N1C[C@H](C)[C@@H](CN(C)C(=O)Nc2ccccc2)OCCCC[C@H](C)Oc2ccc(NC(=O)Nc3ccc4c(c3)OCO4)cc2C1=O	i	0
35	C[C@H]1CN([C@@H](C)CO)C(=O)c2cc(C3=CCCC3)cnc2O[C@@H]1CN(C)Cc1cccnc1	i	4
36	COc1cccc(S(=O)(=O)Nc2ccc3c(c2)OC[C@@H](C)N(Cc2ccccc2F)C[C@H](C)[C@@H](OC)CN(C)C3=O)c1	i	0
37	COc1cccc(C#Cc2ccc([C@H]3[C@@H](C#N)N(C(=O)C4CC4)[C@@H]3CO)cc2)c1	i	3
38	C[C@@H]1CN([C@@H](C)CO)S(=O)(=O)c2ccc(-c3cncnc3)cc2O[C@@H]1CN(C)C(=O)CC1CC1	i	3
39	C[C@@H]1CN([C@H](C)CO)C(=O)c2cccc(NS(=O)(=O)c3cccs3)c2O[C@H]1CN(C)C(=O)Nc1cccc2ccccc12	i	-2
40	COc1cccc(S(=O)(=O)N[C@@H]2C=C[C@H](CC(=O)NCc3ccncc3)O[C@H]2CO)c1	i	2

#	rRNA inh HTS OD600	rRNA inh HTS RFP
33	-1	0.4
34	7	-4.1
35	14	-2.1
36	-5	0.6
37	-3	-0.1
38	6	-2.9
39	9	1.0
40	5	-0.4

The list goes on:
#	SMILES	FGF22 binding	rRNA inh HTS
41	CCC(=O)Nc1ccc2c(c1)C(=O)N(C)[C@H]1CC[C@@H](CC(=O)NCc3ccccc3)O[C@@H]1CO2	i	-1
42	C[C@@H]1CCCCO[C@@H](CN(C)C(=O)Nc2cccc3ccccc23)[C@H](C)CN([C@@H](C)CO)C(=O)c2cc(NC(=O)NC3CCCCC3)ccc2O1	i	10
43	COc1ccccc1-c1cn(CC[C@H]2CC[C@H](NC(=O)c3cnccn3)[C@@H](CO)O2)nn1	i	-1
44	CO[C@@H]1CN(C)C(=O)c2cc(NC(=O)C3CCOCC3)ccc2OC[C@H](C)N(C)C[C@@H]1C	i	-1
45	C[C@H](CO)N1C[C@H](C)[C@@H](CN(C)Cc2ccc3c(c2)OCO3)OCCCC[C@H](C)Oc2ccc(NC(=O)Nc3ccc(C(F)(F)F)cc3)cc2C1=O	i	8
46	CN1C(=O)c2cc(NC(=O)Cc3ccccc3)ccc2OC[C@@H]2O[C@H](CC(=O)O)CC[C@H]21	+	5
47	C[C@@H]1CN([C@@H](C)CO)C(=O)c2cc(NC(=O)Nc3ccc4c(c3)OCO4)ccc2O[C@@H](C)CCCCO[C@@H]1CN(C)C(=O)C1CCCCC1	i	0
48	O=C(NC1CCC1)[C@H]1[C@H](CO)[C@H]2Cn3c(cccc3=O)[C@H]2N1CCc1ccccc1	i	1

#	rRNA inh HTS OD600	rRNA inh HTS RFP
41	0	0.4
42	15	-1.3
43	5	-3.3
44	3	-0.2
45	-5	3.8
46	1	0.8
47	1	-2.2
48	3	1.0

In a second layout: results already given.
46	CN1C(=O)c2cc(NC(=O)Cc3ccccc3)ccc2OC[C@@H]2O[C@H](CC(=O)O)CC[C@H]21
47	C[C@@H]1CN([C@@H](C)CO)C(=O)c2cc(NC(=O)Nc3ccc4c(c3)OCO4)ccc2O[C@@H](C)CCCCO[C@@H]1CN(C)C(=O)C1CCCCC1
screen / no.	46	47
FGF22 binding	+	i
rRNA inh HTS	5	0
rRNA inh HTS OD600	1	1
rRNA inh HTS RFP	0.8	-2.2

The results go on.
#	SMILES	FGF22 binding	rRNA inh HTS
49	C[C@H]1CN([C@@H](C)CO)C(=O)c2c(c3ccccc3n2C)-c2ccccc2CO[C@@H]1CN(C)S(=O)(=O)c1cccc(F)c1	i	3
50	CNC[C@H]1Oc2ccc(NS(C)(=O)=O)cc2C(=O)N([C@@H](C)CO)C[C@H]1C	i	4
51	C[C@@H]1CN([C@H](C)CO)C(=O)c2cc(NC(=O)NC3CCCCC3)ccc2O[C@@H](C)CCCCO[C@H]1CN(C)Cc1ccncc1	i	-2
52	Cc1ccccc1-c1cnc2c(c1)C(=O)N([C@@H](C)CO)C[C@@H](C)[C@@H](CN(C)Cc1cncnc1)O2	i	1
53	C[C@@H]1CCCCO[C@H](CN(C)S(=O)(=O)c2ccccc2)[C@H](C)CN([C@@H](C)CO)C(=O)c2cc(NC(=O)Nc3cccc4ccccc34)ccc2O1	i	2

#	rRNA inh HTS OD600	rRNA inh HTS RFP
49	8	0.7
50	6	-1.7
51	-2	-1.0
52	7	1.0
53	9	-3.0

4 of the entries above in order of the rRNA inh HTS OD600 value, descending.
entry | SMILES | rRNA inh HTS OD600
23 | CN(C)C(=O)[C@H]1[C@H](CO)[C@H]2Cn3c(cccc3=O)[C@@H]1N2CC1CCCCC1 | 5
48 | O=C(NC1CCC1)[C@H]1[C@H](CO)[C@H]2Cn3c(cccc3=O)[C@H]2N1CCc1ccccc1 | 3
5 | Cc1noc(C)c1NC(=O)N[C@H]1CC[C@H](CC(=O)N2CCN(C)CC2)O[C@H]1CO | 1
13 | C[C@@H](NC(=O)C[C@H]1C[C@H]2c3cc(NS(=O)(=O)c4ccc(F)cc4)ccc3O[C@H]2[C@@H](CO)O1)c1ccccc1 | -13

Screening data deposited in PubChem BioAssay by Broad Institute.
